Yeast UUG start: modulators of yeast start codon fidelity, primary screen, whole organism, S. cerevisiae, single point, plate reader; S. cerevisiae UUG-firefly luciferase reporter, luminescence/redox ratio; activity score, % at 18.7 µM; 350,000 compounds, 0.13% hits;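 active means replicate mean at a twofold rise or more, about +100% in these data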;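 further: firefly luciferase made from a UUG start codon reports start codon fidelity; reporter light over untreated wells divided by growth signal over untreated wells; some hits fall short of that in this replicate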
Rce1 inhib: yeast Rce1p protease inhibitors, primary screen, biochemical, fluorescence, cell-free homogeneous; CAAX prenyl protease 2 (Saccharomyces cerevisiae (strain ATCC 204508 / S288c)), Q03530; yeast membranes, quenched prenylated peptide cleavage fluorescence; calls only; 290,000 compounds, 0.27% hits;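 active means fall in fluorescence gain of 50% or more versus controls, with final raw signal at or below 3038400; inconclusive means same 50% fall but final raw signal above 3038400; inactive means fall in fluorescence gain under 50%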;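 further: plate controls were neutral control wells for no effect and wells lacking membranes for full effect; tested at 10 µM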
Target sequence (Q03530 whole entry, looked up): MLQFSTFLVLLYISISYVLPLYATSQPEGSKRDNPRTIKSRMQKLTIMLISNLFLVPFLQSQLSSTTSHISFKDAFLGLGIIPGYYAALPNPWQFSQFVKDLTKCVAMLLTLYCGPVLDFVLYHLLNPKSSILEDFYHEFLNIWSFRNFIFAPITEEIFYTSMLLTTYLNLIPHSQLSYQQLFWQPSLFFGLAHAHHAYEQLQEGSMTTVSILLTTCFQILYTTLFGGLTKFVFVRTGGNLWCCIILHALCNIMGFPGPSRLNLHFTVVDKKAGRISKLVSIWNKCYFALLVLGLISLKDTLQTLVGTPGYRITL
PABP polyA inh: PABP poly(A) RNA binding inhibitors, primary screen, biochemical, fluorescence polarization, uHTS; Polyadenylate-binding protein 1 (Homo sapiens), P11940; inhibition, % at 35 µM; 290,000 compounds, 1% hits;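 active means 50% or more with normal probe brightness, or confirmed in later tests; inconclusive means above 50% with abnormal brightness, or retests that disagree; inactive means below 50% or failed in later tests; about a fifth of its hits are not listed in these tables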;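 further: calls also rest on retests at 20 µM and on dose response follow-up; controls were probe without protein and protein plus probe with vehicle; some compounds called inactive have numbers as strong as hits; many hits fall short of the cut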
Target sequence (P11940 whole entry, looked up): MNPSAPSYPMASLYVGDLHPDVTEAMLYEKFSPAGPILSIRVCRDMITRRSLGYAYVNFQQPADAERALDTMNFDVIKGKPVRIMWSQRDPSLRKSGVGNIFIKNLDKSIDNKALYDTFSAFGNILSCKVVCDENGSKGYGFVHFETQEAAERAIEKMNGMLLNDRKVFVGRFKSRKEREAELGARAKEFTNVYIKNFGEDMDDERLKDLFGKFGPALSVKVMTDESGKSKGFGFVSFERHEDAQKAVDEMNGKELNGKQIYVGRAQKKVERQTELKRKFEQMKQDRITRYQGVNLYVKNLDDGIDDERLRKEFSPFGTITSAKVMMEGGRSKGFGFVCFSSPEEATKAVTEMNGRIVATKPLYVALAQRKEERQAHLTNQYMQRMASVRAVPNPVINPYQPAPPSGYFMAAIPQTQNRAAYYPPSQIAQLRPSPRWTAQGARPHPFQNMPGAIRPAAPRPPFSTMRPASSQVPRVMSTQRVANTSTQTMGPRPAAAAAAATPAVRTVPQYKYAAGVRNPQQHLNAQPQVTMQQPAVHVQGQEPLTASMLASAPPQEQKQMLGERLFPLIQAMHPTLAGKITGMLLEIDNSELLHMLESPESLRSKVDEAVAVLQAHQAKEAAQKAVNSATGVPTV
eIF4H FP inh: human eIF4H binding inhibitors, primary screen, translation initiation inhibitor project, biochemical, uHTS, fluorescence polarization. Eukaryotic translation initiation factor 4H (Homo sapiens), Q15056. AID 2012, 2009. eIF4H fluorescence polarization binding assay. inhibition, % at 35 µM. 290,000 compounds, 0.94% hits;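 active means 50% or more with normal probe brightness, or confirmed in later tests; inconclusive means above 50% with abnormal brightness, or retests that disagree; inactive means below 50% or failed in later tests; about a fifth of its hits are not listed in these tables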;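 further: calls also rest on retests at 20 µM and on dose response follow-up; 0% = protein and probe with vehicle and 100% = probe without protein; strong numbers were not always called active; many hits fall short of the cut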
Env fusion inh: inhibitors of HIV-1 Env-driven cell-cell fusion, primary screen, HeLa-JRFL effector, CEM21 target cells, luciferase; inhibition, % at 12.3 µM; 360,000 compounds, 1.1% hits;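 active means mean replicate inhibition score of at least 50 and every replicate individually at or above 50; inconclusive means only one of the two criteria met; inactive means mean below 50 and not all replicates reaching 50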;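 further: 0% = plate neutral controls and 100% = maraviroc near 300 nM; one replicate is shown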
CSC inhib: cancer stem cell viability inhibitors, primary screen, luminescence; cancer stem cell-like cells viability; inhibition, % at 7.5 µM; 300,000 compounds, 1.1% hits;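 active means mean at 75% or more and at least half the replicates too; inconclusive means mean and replicates disagree; tested in HMLE shEcad cells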;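 further: 0% = median of negative and 100% = median of positive control wells; the first replicate is given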
MT1-MMP act inh: blockers of MT1-MMP proenzyme processing, primary screen, HT1080 RFP-PRO-GFP cells, GFP/RFP fluorescence; GFP/RFP ratio change, % at 20 µM; GFP/RFP ratio fluorescence, overnight; percent of plate control window, DMSO zero; 360,000 compounds, 0.061% hits; AID 651647, 2012;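 active means GFP/RFP ratio change of at least 30% with cell ATP level not reduced by more than half and red fluorescence within 50% of control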; further: strong numbers were not always called active
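Compound: 20 µM single dose, 1% DMSO / System: HT1080 RFP-PRO-GFP cells / Controls: DMSO and RFP-L50D-GFP cell wells / Read-out basis: GFP/RFP fluorescence ratio / Schedule: overnight compound exposure at 37 °C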
eIF4H FP inh retest: further read-out of eIF4H FP inh, marked with its call; inhibition, %; compound at 20 µM; confirmation average;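 mean of two retest wells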
PABP polyA inh retest: second read-out of PABP polyA inh, no call of its own (marks repeat the call); inhibition, %; compound at 20 µM; confirmation repeats;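 mean of two retest wells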
MT1-MMP act inh RFP: recorded beside MT1-MMP act inh, whose call it bears; RFP signal change, %; measured here: RFP expression control read;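 0 = vehicle wells; hits needed this value within 50% of zero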
* marks the source's active call; other numbers are inactive results; i = inactive; ? = inconclusive; · = no result given; & = joins results of further samples; [ ] = remark or other dose. The list is partial (hit frequency here may not be typical).

SMILES | Yeast UUG start | Rce1 inhib | PABP polyA inh | eIF4H FP inh | Env fusion inh | CSC inhib | MT1-MMP act inh | MT1-MMP act inh RFP | others
Cn1nc(-c2ccc(C(=O)O)cc2)c2ccccc2c1=O | -10 | i | 10 | -13 | -38 | -10 | 7 | 4
COc1ccc2cnn(-c3ccc(C)cc3)c(=O)c2c1OC | -7 | i | 4 | -1 | · | -3 | 4 | 10
Cc1cc(S(=O)(=O)N2CCCC(N(C)CCc3ccccn3)C2)c(C)cc1Cl (configuration not stated) | -19 | i | 6 | -3 | 3 | · | -3 | -1
Cc1ccccc1CN1CCCOCCS1(=O)=O | -14 | i | 11 | -5 | -4 | -5 | 0 | 5
C/C(=N/NC(=O)c1cc2ccccc2cc1O)c1ccco1 | -21 | · | -4 | 8 | -59 | -3 | -14 | -13
COc1ccc(-n2c(SC)nc(O)c(Cc3ccccc3)c2=O)cc1 | -3 | i | -2 | 3 | -19 | -2 | 2 | 2
CCC(=O)/C=C1/Sc2ccccc2N1CC | -22 | i | 21 | -2 | · | -3 | 2 | -1
Cc1nc2ccccn2c1C(=O)Nc1ccc(Cl)cc1 | · | i | 3 | -6 | -13 | -3 | -3 | -1
O=C(Nc1ccccc1)c1ccn[nH]1 | -13 | i | -2 | -9 | · | -6 | -2 | -4
CC(C(=O)N1CCCc2ccccc21)N1CCN(S(=O)(=O)c2ccccc2F)CC1 (configuration not stated) | 8 | i | -12 | 2 | · | 1 | 1 | 2
O=C(Nc1ccc2c(c1)OCO2)c1cccc(Cl)c1 | -16 | i | -23 | -9 | · | 11 | -4 | -10
Cc1c(C(=O)c2ccc([N+](=O)[O-])cc2)c(=O)n(C)c(=O)n1C | · | i | 1 | 8 | -2 | -8 | 9 | 6
c1coc(CN(Cc2cccs2)Cc2nnnn2C2CCCCC2)c1 | 5 | i | -8 | 4 | · | 6 | -5 | 1
Cn1cnnc1SCC(=O)Nc1ccc(N2CCOCC2)cc1 | · | i | -6 | -4 | 2 | -12 | 5 | 6
Cc1cc(-c2nnc(CCC(=O)N(C)C(C)c3cccs3)o2)no1 (configuration not stated) | · | i | 1 | 5 | -12 | -4 | 1 | 2
Clc1ccc(-n2nnnc2-c2ccccc2)cc1Cl | -21 | · | -2 | 6 | · | -19 | 4 | -5
CCN(CC)c1ccc2c(O)cc(=O)oc2c1 | · | i | -3 | 5 | 1 | 9 | -7 | 4
CCN(CC)S(=O)(=O)c1ccc2c(c1)N(CC(=O)NCCCN1CC(C)CC(C)C1)C(=O)CO2 (configuration not stated) | -13 | i | 0 | 8 | 20 | · | -2 | 3
COc1ccc(OCC(=O)Nc2ccc(N3CCN(C(=O)c4ccco4)CC3)cc2)cc1 | · | i | 2 | 1 | 14 | -10 | 1 | 1
CCOC(=O)c1c(C)[nH]c(C(=O)CSc2nnnn2-c2ccccc2)c1C | -13 | i | 1 | -6 | -17 | 17 | 9 | 0
O=C(CCS(=O)(=O)c1ccc(Br)cc1)Nc1ccc(Br)cc1F | -8 | i | ? | ? | 14 | -2 | 3 | -1
N#C/C(=C\C=C\c1ccccc1[N+](=O)[O-])C(=O)NC1CCCCC1 | -7 | i | ? | -10 | · | 82* | -47 | -28
CCC(c1ccccc1)c1nc(-c2cccnc2)no1 (configuration not stated) | -14 | i | 10 | 3 | · | 9 | -1 | 4
C[C@H]1CN([C@@H](C)CO)C(=O)c2cc(Br)cnc2O[C@H]1CN(C)C(=O)c1ccc2c(c1)OCO2 | -12&10 | · | · | · | 3[16.7 µM] | · | -1 | 2
Cc1ccc(S(=O)(=O)N(C)C)cc1NC(=O)C(C)OC(=O)C1CCC1 (configuration not stated) | -3 | · | · | · | -2 | -8 | 1 | 1
Cc1cccc(C(=O)NC(C(=O)Nc2ccccc2N2CCOCC2)C(C)C)c1 (configuration not stated) | 11 | i | 3 | 0 | -17 | -5 | -5 | -1
Cc1c(COc2ccc3ccccc3c2)nnn1CC(=O)NS(=O)(=O)c1ccccc1C(F)(F)F | -13 | · | · | · | -17 | · | 3 | 5
COc1cnc(SC(C)C)[nH]c1=O | · | i | 1 | 1 | -3 | -8 | 6 | 6
CC(C)C(=O)NNC(=O)c1ccccn1 | · | i | 1 | 12 | 0 | -14 | 8 | 6
COC(=O)C1=C(N)OC2=C(C(=O)CC(C)(C)C2)C1c1cccnc1 (configuration not stated) | -13 | i | 8 | -1 | -27 | -13 | -2 | 0
Cc1ccc(NC(=O)c2c(NC(=O)CCC(=O)O)sc3c2CCCCC3)cc1 | · | i | 20 | 11 | 6 | -8 | -12 | 3
CCNC(=S)Nc1cccc(S(=O)(=O)Nc2ccccc2OC)c1 | · | i | -1 | -9 | 2 | 23 | 14 | -4
O=C(CNC(=O)c1sc2ccccc2c1Cl)NCc1ccc(F)cc1 | -13 | i | · | · | -45 | 24 | 2 | 2
CC1(C)c2ccccc2C(=O)c2ccccc21 | -11 | · | · | · | -16 | · | 8 | -3
COc1cc(/C=C/C(=O)OCC(=O)NC(=O)NC(C)C)cc(OC)c1OC | -2 | i | -7 | 2 | 24 | -4 | 10 | 2
CCn1c(SCC(=O)Nc2nc(C)cs2)nnc1-c1ccoc1C | 2 | i | 2 | -7 | -16 | -27 | 2 | -1
COc1ccc(C(=O)NCc2nnc(SCC(=O)NC3CCCC3)o2)cc1 | -16 | i | 2 | 1 | 2 | -2 | -2 | 2
CCN(C(=O)CSc1cccc[n+]1[O-])C1CCCCC1 | -15 | · | · | · | -2 | -18 | -1 | 0
CCOc1ccc(-c2cnc3ccccc3n2)cc1 | -71 | i | -2 | -7 | -13 | 11 | -2 | -5
CC1CN(C(=O)c2cc3ccccc3cc2O)CC(C)O1 (configuration not stated) | -12 | i | · | · | 10 | -7 | 9 | 4
O=C(NC1CCSc2ccccc21)c1cccc(Cl)c1 (configuration not stated) | -6 | i | -2 | -5 | 12 | -1 | 0 | -1
NC(=O)C1CCN(C(=O)OCc2ccccc2)CC1 | · | i | 9 | -8 | · | -1 | 2 | 7
COc1cc(OC)c(S(=O)(=O)NC(C)C)cc1C(=O)O | 10 | i | 2 | -4 | -88 | · | 3 | 3
O=C(c1ccc([N+](=O)[O-])cc1)N1CCN(C2=NS(=O)(=O)c3ccccc32)CC1 | -16 | i | -2 | 2 | -1 | -8 | -5 | 3
COc1ccc(/C=C/c2c(-c3ccc(OC)cc3)oc3cccnc23)cc1 | -5 | i | -7 | -6 | 10 | 58 | -1 | -1

Among those listed so far, these have bromine:
SMILES | Yeast UUG start | Rce1 inhib | PABP polyA inh | eIF4H FP inh | Env fusion inh | CSC inhib | MT1-MMP act inh | MT1-MMP act inh RFP | others
O=C(CCS(=O)(=O)c1ccc(Br)cc1)Nc1ccc(Br)cc1F | -8 | i | ? | ? | 14 | -2 | 3 | -1
C[C@H]1CN([C@@H](C)CO)C(=O)c2cc(Br)cnc2O[C@H]1CN(C)C(=O)c1ccc2c(c1)OCO2 | -12&10 | · | · | · | 3[16.7 µM] | · | -1 | 2

Next section.
SMILES | Yeast UUG start | Rce1 inhib | PABP polyA inh | eIF4H FP inh | Env fusion inh | CSC inhib | MT1-MMP act inh | MT1-MMP act inh RFP | others
O=C(CCCCCNC(=O)c1ccccc1)N/N=C/c1ccccc1 | · | i | -7 | -6 | 13 | -5 | 3 | 6
CCCCn1c(-c2ccc(C(C)(C)C)cc2)nc2cc3[nH]c(=O)c(C(C)C)nc3cc21 | 4 | i | 35* | 66 | -17 | 10 | -10 | -17 | eIF4H FP inh retest=29;PABP polyA inh retest=81*
Cc1ccc(-n2ncc3c(SCC(=O)Nc4cc(C)on4)ncnc32)c(C)c1 | · | i | -3 | 0 | -14 | · | -1 | -15
Cc1ccc(NS(=O)(=O)c2cccc(C(=O)n3ncc(C#N)c3N)c2)c(C)c1 | 2 | i | 7 | 4 | -55 | 19 | 0 | -1
COc1ccc(C2CC(c3ccccc3)=NN2C(=O)COC(=O)c2cnc(Cl)c(Cl)c2)cc1 (configuration not stated) | 10 | i | 9 | -6 | -25 | 7 | 0 | -2
O=C(N/N=C/c1ccc(Br)s1)c1ccco1 | · | i | -4 | -2 | -38 | -5 | 2 | 7
O=C(Cn1cc(COc2c(F)c(F)c(Br)c(F)c2F)nn1)c1ccc(O)cc1 | -2 | · | · | · | -18 | · | 2 | -3
COc1ccc(-c2nc(CN3CCC(C(=O)N4CCc5ccccc54)CC3)c(C)o2)cc1OC | -20 | i | 2 | -6 | 10 | 0 | -3 | -2
CN1C(=O)C(O)(CC(=O)c2ccncc2)c2ccccc21 (configuration not stated) | -2 | i | 5 | -6 | -75 | -4 | -7 | 2
CCSc1nc(-c2ccccc2)cc(=O)[nH]1 | -28 | · | · | · | 4 | -2 | 0 | 1
Cc1cc(NC(=O)CSc2nc(=O)n(CCCN(C)C)c3c2CCCC3)no1 | -7 | i | · | · | -12 | -18 | 4 | 6
COc1cc2c(cc1OC)C(C)N(C(=O)c1ccc(Cl)c(S(=O)(=O)N3CCCCC3)c1)CC2 (configuration not stated) | 1 | i | 4 | 22 | 23 | -7 | -3 | -25
COc1ccc(C)cc1S(=O)(=O)Nc1cc2c3c(c1)CCN3C(=O)CC2 | 7 | i | · | · | -12 | 1 | 8 | 4
c1cnc2ccc(C(c3nnnn3C3CCCC3)N3CCN4CCCC4C3)cc2c1 (configuration not stated) | -12 | i | -4 | -3 | -12 | 6 | 6 | 0
CCn1nnnc1NC(=O)c1ccc2ccccc2c1 | · | i | -1 | -8 | 1 | 0 | 1 | 5
CCn1c(COc2ccccc2C)nnc1SCC(=O)O | -17 | i | 1 | -7 | -14 | -7 | 3 | 5
Cc1ccc(CN2CC(=O)N3[C@H]4c5ccccc5OC[C@@H]4[C@H](c4ccccc4)[C@]3(C)C2=O)cc1 | -3 | · | · | · | ? | 19 | -5 | -11
CCOc1ccc2nc(N(CCCN(C)C)C(=O)c3ccc(C(=O)c4ccccc4)cc3)sc2c1 | 8 | i | -8 | -15 | -20 | -9 | -3 | -5
Cn1ncc(Cl)c1C(=O)N/N=C/c1ccccn1 | -27 | i | 8 | 19 | 3 | -16 | -1 | 3
Cc1ccc(CN2CCC(c3cc(-c4cccs4)n[nH]3)CC2)cc1 | -12 | i | 28 | 9 | -3 | 2 | 3 | -2
Cc1ccc(C(=O)N2CCCC(N3CCN(c4cccc(C(F)(F)F)c4)CC3)C2)s1 (configuration not stated) | 1 | i | 2 | 2 | 48 | 20 | -7 | -18
COc1cccc(C2(c3cccc(OC)c3)CC2C(=O)Nc2cccc3ccccc23)c1 (configuration not stated) | -16 | i | 9 | -5 | 42 | -4 | 14 | 4
CCc1ccc(C(=O)/C=C/Nc2ccc(S(=O)(=O)Nc3onc(C)c3C)cc2)cc1 | · | i | 10 | 1 | · | 5 | 2 | 2

Screens (PubChem)
